# Bead autofluor: flagged as autofluorescent in microsphere protease counterscreen; compound autofluorescence counterscreen, microsphere flow cytometry; hits give high values; fluorescence intensity (test concentration not listed); 360,000 tested, 3.1% active;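 active = at least 3 SD above the mean of all compounds, about 16000 in these data; inconclusive = too few beads counted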;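 also: 100 nL of 1 mM stock went into each well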
# Sa RN4220 lethal: kills Staphylococcus aureus RN4220; inhibition, % (no concentration beside the values); 330,000 tested, 0.33% active; S. aureus RN4220 growth, OD600, 16 h;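 active = z-score of -3 or lower and OD600 up to 0.18 on both plates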;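 also: plate controls were untreated cells for no effect and reference antibiotic for full effect; stock transfer was 100 nL into about 80 µL; one replicate is shown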
# Mtb hypoxia inh: reduces hypoxia-regulated biosensor signal in M. tuberculosis. M. tuberculosis hypoxia-regulated fluorescent reporter, fluorescence. 300,000 tested, 0.1% active. AID 1159583. fluorescence inhibition, % (no concentration beside the values);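 active = 35 to 45% if threefold the growth effect, above 45% if 1.5-fold the growth effect; inactive = the rest, general growth blockers included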;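 also: wells of about 50 µL received 100 nL stock; 0% = vehicle wells and 100% = reference inhibitor wells; whole bacteria with a GFP reporter of the hypoxia response; strong numbers were not always called active; many hits fall short of the cut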
# PrP UTR inh: inhibition of PrP 5' UTR reporter expression; cell-based PrP 5' UTR mRNA reporter, plate reader; inhibition, % (concentration not given with the values); 340,000 tested, 0.35% active; AID 488862;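 active = every replicate at 50% or more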;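 also: 0 = median of the neutral control wells; tested in H4 reporter cells; numbers are from one replicate; inactives centre near -14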
# BJeLR lethal: kills HRASV12-expressing BJeLR cells; BJeLR (HRASV12) viability, CellTiter-Glo ATP luminescence, 48 h; reference of the scale not given here; inhibition, % (concentration not given with the values); 300,000 tested, 0.17% active;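 active = replicate mean above 50%; inconclusive = above 50% but judged a plate artefact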;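 also: 50 nL library stock added to about 25 µL; numbers are from one replicate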
# Sa ugtP lethal: compounds lethal to S. aureus RN4220 ugtP deletion mutant; growth inhibition, % (concentration not given with the values); 330,000 tested, 0.54% active; OD600 growth, 16 h; some inactives read as strong as hits; AID 1259309;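 active = z-score under -3 and OD600 up to 0.15 on both plates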;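 also: plate controls were untreated wells for no effect and antibiotic for full effect; wells of about 80 µL received 100 nL stock; the first replicate is given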
# Mtb hypoxia inh growth: further read-out of Mtb hypoxia inh, marked with its call; growth inhibition, %; measured here: M. tuberculosis growth (absorbance);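 0% = vehicle and 100% = reference antibiotic; read after six days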
# Numbers without * were called inactive; ? = inconclusive; nt = not tested or not shown; & = joins results of further samples.
Molecule	Bead autofluor	PrP UTR inh	BJeLR lethal	Sa ugtP lethal	Mtb hypoxia inh growth	Mtb hypoxia inh	Sa RN4220 lethal
COCCOC(=O)c1c(N)n(Cc2ccc(OC)cc2)c2nc3ccccc3nc12	4407	-4.6	-6.0	0.1	nt	nt	3.2
N#CC1=C(N)C(C#N)(C#N)[C@H](c2ccoc2)[C@H]2CN(Cc3ccccc3)CC=C12	2632	-32.8	17.7	-5.3	nt	nt	-1.6
CCN(CC)C(=O)Cn1cc(C(=O)C(=O)NCc2ccccn2)c2ccccc21	5481	-22.3	-8.2	13.3	-0.4	16.2	3.9
O=C(COC(=O)c1cc(S(=O)(=O)N2CCCC2)ccc1O)Nc1ccccc1Br	6276	-28.2	nt	6.8	4.2	10.9	-1.1
C[C@H](CO)N1C[C@H](C)[C@@H](CN(C)C(=O)Nc2ccc3c(c2)OCO3)Oc2c(NS(=O)(=O)c3cn(C)cn3)cccc2C1=O	3584	-18.9	nt	-6.7	11.3	5.1	-18.6
Cc1c(N=Cc2c(O)n(Cc3ccccc3)c(=O)[nH]c2=O)c(=O)n(-c2ccccc2)n1C	2180	-12.7	3.6	13.1	16.1	12.0	1.4
CCOC(=O)c1c(C)c(-c2ccccc2)n(CC(=O)N2CCCC2)c1C	6130	-30.9	2.5	-1.9	3.3	4.6	0.1
Cc1nnc2ccc(-c3ccc(NC(=O)c4cccnc4Cl)cc3)nn12	4504	-9.6	1.7	11.5	8.3	13.7	1.6
O=C(Cn1cnc2ccccc2c1=O)c1ccc2c(c1)OCCO2	2798	-72.4	-1.3	-1.7	10.5	10.7	3.8
Cc1ccc(Cl)cc1NC(=O)CSc1sc2c(O)cc(=O)[nH]c2c1C#N	3760	-17.5	0.4	6.9	2.1	6.5	3.0

# Compound profiles, from the list above:
# Entry for Cc1ccc(Cl)cc1NC(=O)CSc1sc2c(O)cc(=O)[nH]c2c1C#N = Bead autofluor: 3760; PrP UTR inh: -17.5; BJeLR lethal: 0.4; Sa ugtP lethal: 6.9; Mtb hypoxia inh growth: 2.1; Mtb hypoxia inh: 6.5; Sa RN4220 lethal: 3.0
# Entry for C[C@H](CO)N1C[C@H](C)[C@@H](CN(C)C(=O)Nc2ccc3c(c2)OCO3)Oc2c(NS(=O)(=O)c3cn(C)cn3)cccc2C1=O = Bead autofluor: 3584; PrP UTR inh: -18.9; BJeLR lethal: nt; Sa ugtP lethal: -6.7; Mtb hypoxia inh growth: 11.3; Mtb hypoxia inh: 5.1; Sa RN4220 lethal: -18.6

# The list goes on.
Molecule	Bead autofluor	PrP UTR inh	BJeLR lethal	Sa ugtP lethal	Mtb hypoxia inh growth	Mtb hypoxia inh	Sa RN4220 lethal
Cc1cc(NS(=O)(=O)c2ccc(NC(NC(=O)C(C(F)(F)F)C(F)(F)F)(C(F)(F)F)C(F)(F)F)cc2)no1	4203	-14.5	nt	15.7	nt	nt	-4.7
Cc1sc2ncnc(Sc3ccccc3C(=O)O)c2c1C	4612	-18.5	-9.8	3.2	-3.7	3.1	2.2
O=C(CNC(=O)c1ccccc1)Oc1cccc(Cl)c1	5720	nt	0.7	1.4	-4.5	13.4	4.0
Cc1cccc(C)c1NC(=O)C1CCCN1C(=O)OC(C)(C)C (stereo unspecified)	4789	-3.8	-7.8	-4.2	8.0	6.9	-0.6
CCNC(=O)Cc1ccc(NS(=O)(=O)c2ccc(F)cc2)cc1	15582	-4.5	-1.4	9.6	-9.7	4.0	4.0
COc1ccc(Nc2nc(N)c([N+](=O)[O-])c(N3CCOCC3)n2)cc1	?	-3.6	-3.0	-20.1	-4.5	-7.1	19.4
O=C(Nc1ccncc1)c1ccc2c(c1)S(=O)(=O)c1ccccc1C2=O	3908	-14.1	9.1	-10.1	8.5	7.3	15.1
Cc1sc(NC(=S)NC(=O)c2ccco2)c(C#N)c1C	5214	-33.6	6.5	10.7	0.2	7.7	7.8
COC(=O)[C@@]12CCCCN1C(c1ccc(-c3cccc(Cl)c3)c(OC)c1)C1C(=O)N(C)C(=O)C12 (stereo partly specified)	nt	nt	nt	4.3	3.5	0.7	6.0
Cc1csc(-c2cnn(-c3ccccc3)c2NC(=O)c2cccc(C(F)(F)F)c2)n1	3869	-0.3	-2.2	-9.0	6.0	-3.0	-1.1
C=CCCCCCCCCc1nc(=S)[nH][nH]1	2728	-19.5	-1.3	3.1	nt	nt	0.5
O=C(O)C1C2C=CC(C2)C1C(=O)NCc1ccco1 (stereo unspecified)	4479	-63.9	0.3	12.4	4.2	7.6	5.8
COc1ccc(OC)c(CN2CCN(Cc3cc(=O)oc4cc(O)ccc34)CC2)c1	3684	-5.7	4.9	-16.6	11.6	-1.8	5.4
O=C(C1CCCN(Cc2ccc(Br)cc2)C1)N1CCCCC1 (stereo unspecified)	3889	-8.2	-5.5	3.3	nt	nt	1.8
CCOC(=O)CC(=O)Nc1ccccc1C(=O)O	2169	2.3	8.5	5.0	nt	nt	4.2
CCOc1cccc(/C(O)=C2/C(=O)C(=O)N(CCOC)C2c2ccncc2)c1 (stereo unspecified)	3333	-3.5	2.4	5.4	3.8	6.8	3.8
NS(=O)(=O)c1ccc(CNS(=O)(=O)c2ccc3c(c2)OCCO3)cc1	4581	-7.3	-14.1	10.9	2.0	9.5	6.0
COc1ccc(CCNC(=O)c2ccc(Cl)c(S(=O)(=O)N3CCCC3)c2)cc1	5480	-18.5	nt	1.0	5.1	-5.3	0.5
O=C(O)CCC(=NNc1ccc([N+](=O)[O-])cc1)C(=O)O	nt	nt	nt	1.9	-1.7	11.6	1.0
O=C(NN=Cc1ccccn1)c1cccc(NC(=O)c2ccccc2Cl)c1	nt	nt	nt	8.8	1.8	4.0	1.9
COc1ccc(/C=N/Nc2nonc2N)cc1OC	4552	-4.2	-2.0	nt	nt	nt	nt
CCOC(=O)C1(Cc2ccc(Cl)cc2)CCN(C(=O)c2cscn2)CC1	4058	-8.6	0.6	6.3	19.5	9.6	5.3
O=C(Nc1ccccc1)c1ccc(NC2CCCCC2)c(S(=O)(=O)N2CCOCC2)c1	?	-22.4	-17.9	-20.9	1.7	-9.3	5.9
O=C(Nc1ccc2c(c1)nc1n2CCN(Cc2ccccc2)C1)c1cccs1	8366	-14.2	4.3	9.6	7.4	14.5	1.4
CCOC(=O)c1cnc2ccc(OCC)cc2c1NCc1ccccc1OC	2536	-9.6	11.4	nt	nt	nt	nt
COC(=O)c1ccc2c(=O)n(CCN3CCOCC3)c(SCC(=O)NCc3ccccc3)nc2c1	4368	-22.0	10.4	4.6	1.1	-5.2	8.6
CCN(CC(=O)Nc1c(F)cccc1F)C(=O)c1ccc2c(c1)OCO2	nt	nt	nt	5.8	-1.7	5.1	-0.7
CCn1nc(C(=O)Nc2cccc(S(=O)(=O)N3CCCC3)c2)c2ccccc2c1=O	4031	-15.7	nt	-0.6	53.2*	23.2*	0.9
CCN1C(=O)C2C(c3ccc(-c4cccc(Cl)c4)cc3)N[C@@](CC(C)C)(C(=O)OC)C2C1=O (stereo partly specified)	nt	nt	nt	19.9	4.9	2.6	-3.5
COC(c1ccccc1)c1nnc(CCC(=O)NC2CCCCC2)o1 (stereo unspecified)	4678	-34.6	-12.0	7.4	3.4	-4.4	3.1

# Among those listed so far, 4 have a COOH group:
Molecule	Bead autofluor	PrP UTR inh	BJeLR lethal	Sa ugtP lethal	Mtb hypoxia inh growth	Mtb hypoxia inh	Sa RN4220 lethal
Cc1sc2ncnc(Sc3ccccc3C(=O)O)c2c1C	4612	-18.5	-9.8	3.2	-3.7	3.1	2.2
O=C(O)C1C2C=CC(C2)C1C(=O)NCc1ccco1 (stereo unspecified)	4479	-63.9	0.3	12.4	4.2	7.6	5.8
CCOC(=O)CC(=O)Nc1ccccc1C(=O)O	2169	2.3	8.5	5.0	nt	nt	4.2
O=C(O)CCC(=NNc1ccc([N+](=O)[O-])cc1)C(=O)O	nt	nt	nt	1.9	-1.7	11.6	1.0

# (cont.)
Molecule	Bead autofluor	PrP UTR inh	BJeLR lethal	Sa ugtP lethal	Mtb hypoxia inh growth	Mtb hypoxia inh	Sa RN4220 lethal
CC(=O)c1cccc(NC(=O)C(OC(=O)/C=C/c2ccc3c(c2)OCO3)c2ccccc2)c1 (stereo unspecified)	9911	-9.5	-2.7	5.4	1.5	2.9	-1.5
C=CCC(Cc1ccc(F)cc1)C(=O)OCC1CCCN1C(=O)C(CC=C)CC(=O)NC(CO)Cc1ccccc1 (stereo unspecified)	nt	nt	nt	3.7&8.1&-34.2&-13.3&-5.3	-2.9&8.2&9.9&3.1&2.2	5.8&13.6&3.3&10.4&-2.2	4.2&1.3&2.2&3.6&6.9
O=C(CN1CCCC1)NN=Cc1ccc(-c2cccc(Cl)c2)o1	nt	nt	nt	-7.7	0.0	13.0	7.6
COc1ccc(Oc2ncnc3c2ncn3Cc2ccccc2)cc1	4597	-12.2	1.9	0.2	nt	nt	7.3
CC(=O)Nc1ccc(NC(=O)CCc2nc3sc4c(c3c(=O)[nH]2)CCCC4)cc1	?	-8.3	-2.5	1.1	-4.9	3.9	0.2
CCc1nnc(NC(=O)C2Cc3ccccc3CN2S(=O)(=O)c2c(C)c(C)cc(C)c2C)s1 (stereo unspecified)	15903	-41.7	-14.6	1.1	-7.1	-5.9	15.1
CN(CCc1ccccn1)C(=O)Nc1ccc(Cl)cc1	17188*	-33.0	0.0	-8.1	4.1	4.9	-0.6
Cc1cccc(NC(=O)Nc2ccc(C)c(C)c2)n1	3383	-102.6	-8.2	-1.6	nt	nt	0.9
Cc1ccc(-c2csc3nc[nH]c(=O)c23)cc1	4961	-25.7	0.1	-4.4	10.5	-17.5	4.9
Cc1cc2nc(N3C(=O)CNC3=S)sc2cc1C	4330	-23.5	9.3	nt	nt	nt	nt
NC(=O)C1CCN(C(=O)/C(=C/c2ccco2)NC(=O)c2ccccc2)CC1	2933	-18.6	1.2	11.0	6.2	11.5	3.7
O=C(CSc1nccn1Cc1ccccc1)NCc1ccccc1	6790	2.1	-7.4	13.3	1.8	-3.6	3.5
Cc1ccc(CNS(=O)(=O)c2ccc3c(c2)n(C)c(=O)c(=O)n3C)cc1	4275	-23.9	9.8	3.1	5.0	12.1	5.7
CCOC(=O)N1CCN(C(=O)C2CCN(S(=O)(=O)N3CCCC3)CC2)CC1	9662	22.3	-1.5	-4.3	2.7	-2.5	0.0
C=CCNCCOCCSc1ccc(Cl)cc1	2072	-19.3	4.9	7.8	1.5	8.2	8.4
CCN1C(=NCCc2ccccn2)NC(c2cccc(F)c2)C(C(=O)OC)=C1C (stereo unspecified)	nt	nt	nt	-8.9	7.6	8.2	2.5
Cc1nc(NC(=O)CSc2nc3ccccc3s2)sc1C(=O)N(C)C	4978	-3.7	3.4	0.1	-16.7	4.7	3.5
O=C(COc1ccc2ccccc2c1)N[C@@H](C(=O)O)c1ccc(O)cc1	3907	4.4	-7.0	-3.0	0.2	-4.5	1.8
Cc1ccc(S(=O)(=O)N2CCC(C(=O)NCCc3ccc(S(N)(=O)=O)cc3)CC2)cc1	11421	-25.7	14.0	3.1	-4.0	0.1	2.7
O=C(NCCN1CCCCC1)Nc1ccccc1F	3602	-19.5	9.8	6.4	0.5	-1.9	3.0
COc1ccc(OCCC(=O)OCC(=O)NCCc2ccccc2)cc1	4313	18.1	3.4	9.6	-5.9	-6.9	3.6
COc1ccccc1NC(=O)c1ccc(NC(=O)c2ccco2)cc1	4043	6.3	3.4	0.4	4.1	-6.9	-2.0
CN(C)S(=O)(=O)n1cnc2ccccc21	4795	-18.6	0.1	5.5	nt	nt	-2.1
COc1ccc(CN2C(=NC(=O)C3CCCO3)SC3CS(=O)(=O)CC32)cc1OC (stereo unspecified)	5555	-6.5	9.5	-5.3	7.6	-1.6	-0.9
CC(C)C(NS(=O)(=O)c1ccccc1)C(=O)OCC(=O)NNC(=O)c1ccccc1 (stereo unspecified)	5890	-27.2	nt	0.0	4.4	1.8	1.9
COc1ccc2c(c1)c(=O)oc1cc(OCC(=O)N3CCc4ccccc4C3)ccc12	8773	-10.5	-18.4	-2.5	1.2	6.2	0.5
Cc1ccc2[nH]c3c(c2c1)CCCC3NC(=O)CCl (stereo unspecified)	3491	10.2	59.9*	nt	nt	nt	nt

# Assay outcomes (PubChem)
